VCAM-1 inhibition: suppression of endothelial VCAM-1 upregulation – cell-based, plate reader, pooled HUVEC, TNFa stimulus (AID 454) | HUVEC TNFa-induced VCAM-1 surface immunofluorescence, plate reader; numbers were filed only for top-ranked candidate wells | inhibition, % at 5 µM | hit rate 0.2% among 10,000;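 active = compound among top-ranked inhibitors of TNF-induced VCAM-1 adhesion protein staining, with the hit upheld by image or statistical review; inactive = the rest, including hits rejected on review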;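 note: 0% = TNFa with vehicle and 100% = cells without TNFa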
FPR ligand: binds the human formylpeptide receptor FPR; P21462; FPR-expressing cells, fluorescent ligand binding, flow cytometry; inhibition, %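 (tested at 6.7 µM)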; hit rate 0.74% among 24,000; AID 440;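 note: 0% = buffer wells and 100% = receptor blocker peptide wells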
Target sequence (P21462 whole entry, looked up): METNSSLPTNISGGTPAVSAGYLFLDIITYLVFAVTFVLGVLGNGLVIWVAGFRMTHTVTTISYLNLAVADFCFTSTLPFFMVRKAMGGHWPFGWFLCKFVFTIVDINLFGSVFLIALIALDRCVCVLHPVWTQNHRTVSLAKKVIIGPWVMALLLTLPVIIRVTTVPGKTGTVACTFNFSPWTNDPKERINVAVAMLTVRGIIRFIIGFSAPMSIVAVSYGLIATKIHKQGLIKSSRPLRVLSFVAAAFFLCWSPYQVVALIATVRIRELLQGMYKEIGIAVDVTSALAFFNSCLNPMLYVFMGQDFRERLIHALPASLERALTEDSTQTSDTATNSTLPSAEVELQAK
VCAM-1 up imaging: enhancers of VCAM-1 display on endothelial cells, imaging, high-content imaging, pooled HUVEC, TNFa stimulus (AID 457); Pooled HUVEC, TNFa-induced VCAM-1 immunofluorescence imaging; hits of this screen are not shown here; hit rate 0.2% among 10,000; calls only;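 active = a top-ranked rise in VCAM-1 staining upheld on image or statistical review; inactive = the rest, including candidates rejected on review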;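 note: compounds tested at 5 µM in the well; cells exposed to compound for 24 hours before fixing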
VCAM-1 imaging: inhibitors of TNFa-induced VCAM-1 surface display, imaging, high-content imaging, pooled HUVEC, TNFa stimulus (AID 456). HUVEC TNFa-induced VCAM-1 surface expression, immunofluorescence imaging; numbers were filed only for top-ranked candidate wells. one-dose inhibition, % at 5 µM; IC50 in µM for titrated hits. hit rate 0.2% among 10,000;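 active = top tenth filtered wells with inhibition above zero that passed visual or statistical confirmation; inactive = the rest, including hits rejected on review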;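 note: 0% = stimulated vehicle wells and 100% = unstimulated cells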
FPRL1 binder: ligands of human FPRL1, also counter-screen for FPR ligands. hit rate 0.3% among 24,000. FPRL1-expressing cells, fluorescent ligand binding inhibition, flow cytometry. P25090. inhibition, %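 (tested at 6.7 µM)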;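 note: 0% = buffer alone and 100% = receptor blocker peptide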
Target sequence (P25090 whole entry, looked up): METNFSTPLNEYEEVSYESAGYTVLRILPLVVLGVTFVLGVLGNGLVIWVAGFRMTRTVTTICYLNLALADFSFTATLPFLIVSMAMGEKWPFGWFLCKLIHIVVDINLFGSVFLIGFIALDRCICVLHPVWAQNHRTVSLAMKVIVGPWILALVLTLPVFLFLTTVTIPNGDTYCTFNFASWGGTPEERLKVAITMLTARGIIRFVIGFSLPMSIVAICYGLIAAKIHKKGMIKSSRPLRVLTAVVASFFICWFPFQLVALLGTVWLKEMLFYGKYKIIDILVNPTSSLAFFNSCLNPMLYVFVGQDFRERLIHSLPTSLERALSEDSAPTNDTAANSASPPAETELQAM
* marks the source's active call; other numbers are inactive results; i = inactive; . = no result given.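 Rule for the calls, unless noted: active = mean above 30%; inconclusive = self-fluorescent; inactive = the rest.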

Molecule | VCAM-1 imaging | FPR ligand | VCAM-1 inhibition | VCAM-1 up imaging | FPRL1 binder
CCOC(=O)C1CCCN(CCCc2ccccc2)C1 (centres undefined) | i | -3.3 | i | i | 4.0
CCOc1ccc(S(=O)(=O)Nc2ccccc2SC)c2cccnc12 | . | 9.4 | . | . | -3.6
COc1cc(OC)cc(OCC(O)Cn2cnc3cc(C)c(C)cc32)c1 (centres undefined) | . | -0.5 | . | . | 0.2
CCOc1ccc(-c2noc(CCC(=O)O)n2)cc1 | . | 5.1 | . | . | 7.6
COc1ccccc1S(=O)Cc1ccc(C(=O)O)o1 (centres undefined) | . | -6.8 | . | . | -4.5
Nc1cccc(-n2nncc2-c2ccccc2)c1 | . | -0.4 | . | . | -2.3
O=C(C1CCCCC1)N1CCN=C1SCc1cccnc1 | . | -1.9 | . | . | -8.9
Nc1nc(CSc2nnc(-c3cccc(F)c3)n2-c2ccccc2)nc(N2CCOCC2)n1 | . | 1.4 | . | . | 2.3
COCCNC(=O)c1ccc(CS(=O)(=O)c2ccc(Cl)cc2)o1 | . | 10.4 | . | . | 4.6
FC(F)(F)c1cc(-c2ccco2)nc(-n2cnc3ccccc32)n1 | . | -3.3 | . | . | -7.5
CCOC(=O)Cc1nnc(NC(=O)C(CC)Sc2nc(C)cc(=O)[nH]2)s1 (centres undefined) | . | 5.2 | . | . | -6.3
O=C1CSC(c2ccccc2)N1CC12CC3CC(CC(O)(C3)C1)C2 (centres undefined) | . | -3.4 | . | . | 5.9

The listing continues:
Molecule | VCAM-1 imaging | FPR ligand | VCAM-1 inhibition | VCAM-1 up imaging | FPRL1 binder
O=C(CSc1nc2c(c(=O)n1-c1ccc(Cl)cc1)SCC2)NCc1ccco1 | . | -1.5 | . | . | -5.0
Cc1c2c(nc3c(C(=O)NC4CCCCC4C)cnn13)CCCC2 (centres undefined) | . | 3.5 | . | . | -5.5
CCC1CCCCN1C(=O)CSc1nnc(-c2ccc(Cl)cc2)o1 (centres undefined) | . | -5.4 | . | . | -3.5
Clc1ccc2c(c1)C(N1CCNCC1)=Nc1ccccc1O2 | i | -6.8 | i | i | 8.9
CCC(C)NC(=O)c1cc(-c2ccc(OC)cc2)on1 (centres undefined) | i | -1.4 | i | i | 0.9
Cc1cc(=O)[nH]c2c1cnn2Cc1ccccc1 | i | 1.2 | i | i | -1.7
CCOC(=O)N1CCC(N2C(=O)c3ccccc3C2Nc2cc(Cl)c(OC)cc2OC)CC1 (centres undefined) | 72.7%* | -2.5 | 73.0 | i | 3.2
O=C1CCC(=O)N1OCCCCOc1ccccc1 | i | 6.2 | i | i | 0.6
Cc1nc(NCc2ccco2)c2oc3ccccc3c2n1 | i | 2.1 | i | i | -7.2
Cc1cc(C)nc(NC(=O)c2c(-c3c(Cl)cccc3Cl)noc2C)n1 | i | -5.2 | i | i | -0.8
CCCCC(NC(C)=O)c1nc2ccccc2n1CCC (centres undefined) | i | 5.6 | i | i | 1.6
CCOc1ccccc1Oc1c(C)oc2c(CN3CCN(C)CC3)c(O)ccc2c1=O | . | -10.7 | . | . | -5.0

Later entries.
Molecule | VCAM-1 imaging | FPR ligand | VCAM-1 inhibition | VCAM-1 up imaging | FPRL1 binder
CC(=O)c1cccc(NC(=O)c2cc(C(C)C)on2)c1 | . | -1.1 | . | . | 0.4
CN(C)C(=O)N1CCC(C(=O)NCc2ccc(F)cc2)CC1 | . | 7.2 | . | . | -1.8
CCOC(=O)c1ccc(NC(=O)CSC2=NC(=O)C(CC)C(=O)N2)cc1 (centres undefined) | i | 10.1 | i | i | 8.1
Cc1cc(NC(=O)c2cc(-c3cccc(Cl)c3)on2)no1 | . | 2.1 | . | . | 0.2
CC1CCN(C(=O)CSc2nnc(Cn3c(=O)sc4ccccc43)n2C)CC1 | . | 1.4 | . | . | -0.8
Cc1nc2nc(C)c(CCC(=O)Nc3ccc4c(c3)OCO4)c(C)n2n1 | . | 0.9 | . | . | -2.7
COc1ccccc1N(CC(=O)NC1CCCC1)C(=O)c1csnn1 | i | -5.5 | i | i | 2.1
CN(C(=O)c1ccc2c(c1)OCO2)C1(C(=O)NC2CCCC2)CCCCC1 | . | -22.8 | . | . | -11.8
O=C(Cn1nc(Cc2cccnc2)c2ccccc2c1=O)NCC1CCCO1 (centres undefined) | i | 0.4 | i | i | 0.9
CCOC(=O)CCCCC(=O)c1[nH]c(=O)[nH]c1Cn1ccnc1 | . | 6.2 | . | . | 2.3
CC1CCN(S(=O)(=O)c2ccc3c(c2)c(=O)c(C(=O)NC2CCCC2)cn3C)CC1 | . | 6.4 | . | . | -10.6
O=c1oc2ccccc2c(O)c1CN1CCCCC1 | i | -1.9 | i | i | -1.7

The results go on:
Molecule | VCAM-1 imaging | FPR ligand | VCAM-1 inhibition | VCAM-1 up imaging | FPRL1 binder
Cn1c(C(=O)NCC2CCCO2)cc2c(=O)n(C)c3ccccc3c21 (centres undefined) | i | 0.9 | i | i | 0.8
COc1cccc(C(=O)NC2=NCCS2)c1 | i | -3.9 | i | i | 4.2
Cc1ccc(S(=O)(=O)Cc2ccc(C(=O)N3CCCC3)o2)cc1 | . | -2.2 | . | . | 8.3
CCS(=O)(=O)N1CCCC(C(=O)NCCCN2CCCC2=O)C1 (centres undefined) | . | 0.6 | . | . | -1.2
COc1ccc(CCN2CC(O)=C(c3nc4ccccc4c(=O)[nH]3)C2=N)cc1OC | i | -3.6 | i | i | -4.7
COC(=O)CCC(=O)Nc1cccc(Br)c1 | i | -3.6 | i | i | -0.6
CCOc1ccccc1C1C(C#N)=C(N)Nc2onc(-c3ccccc3)c21 (centres undefined) | . | 19.9 | . | . | 19.9
COc1ccccc1N1CCN(C(=O)c2ccc(S(=O)(=O)N3CCCCCC3)cc2)CC1 | i | -5.7 | i | i | 1.9
CCc1nn(C(C)C(=O)Nc2cccc(C)c2C)c(=O)c2cc3occc3n12 (centres undefined) | . | 1.5 | . | . | 8.4
O=C(NCCCN1CCc2ccccc2C1)C1CCN(c2nnc(-n3cccc3)s2)CC1 | . | -7.9 | . | . | 0.8
Cn1c(=O)c2cc(S(=O)(=O)NC(C(=O)N3CCCCCC3)c3ccccc3)ccc2n(C)c1=O (centres undefined) | . | -2.4 | . | . | -2.9
CCc1ccc(C2CC(c3ccccc3C)n3nc(N)nc3N2)cc1 (centres undefined) | . | -2.5 | . | . | -3.3

More compounds follow.
Molecule | VCAM-1 imaging | FPR ligand | VCAM-1 inhibition | VCAM-1 up imaging | FPRL1 binder
COc1ccccc1NC(=O)Cn1cnc2c(cnn2-c2ccc(C)c(C)c2)c1=O | . | 1.5 | . | . | -3.2
O=CNCC(=O)NC1CCCCCC1 | . | -0.8 | . | . | 5.6
Cc1cc(S(=O)(=O)N2CCN(Cc3ccccc3)CC2)c(C)s1 | . | -9.3 | . | . | -0.9
CCOC(=O)CN1C2=NCCN2c2ccccc21 | i | 0.2 | i | i | -2.7
O=C(NCc1ccccc1)C1CCCN1S(=O)(=O)c1cccc2cccnc12 (centres undefined) | i | -5.4 | i | i | -2.1
COc1ccc(-n2nnnc2S(=O)(=O)CC(=O)N2CCCCC2)cc1 | . | 0.3 | . | . | 12.3
COc1ccc(C2C(C#N)=C(N)Oc3n[nH]c(-c4ccccn4)c32)c(OC)c1OC (centres undefined) | . | 1.5 | . | . | 1.1
CCSc1nnc(N2C(=O)CC(c3ccsc3)C3=C2CC(C)(C)CC3=O)s1 (centres undefined) | i | 2.4 | i | i | -4.3
CCCCCOC(=O)C1C2C=CC3(CN(c4ccccc4C)C(=O)C13)O2 (centres undefined) | . | -3.6 | . | . | 8.6
Cn1cc(/C=N/n2cnc3sc4c(c3c2=O)CCCC4)c2ccccc21 | . | -2.4 | . | . | -1.8
CC(=O)CCc1ccc(OCCCCn2cncn2)cc1 | i | 3.8 | i | i | 2.5
CCN1CCN(C(c2cccs2)C(C)NC(=O)c2ccccc2F)CC1 (centres undefined) | . | -8.6 | . | . | 0.0

Some of the entries above, reformatted:
Each structure is followed by: VCAM-1 imaging, FPR ligand, VCAM-1 inhibition, VCAM-1 up imaging, FPRL1 binder
Cc1nc(NCc2ccco2)c2oc3ccccc3c2n1
  i, 2.1, i, i, -7.2
Cc1cc(C)nc(NC(=O)c2c(-c3c(Cl)cccc3Cl)noc2C)n1
  i, -5.2, i, i, -0.8
CCCCC(NC(C)=O)c1nc2ccccc2n1CCC (centres undefined)
  i, 5.6, i, i, 1.6

Following part
Molecule | VCAM-1 imaging | FPR ligand | VCAM-1 inhibition | VCAM-1 up imaging | FPRL1 binder
COc1ccccc1C(=O)Nc1c2c(nn1-c1cccc(C)c1C)CS(=O)C2 (centres undefined) | . | 7.1 | . | . | -0.3
O=c1nc2c(-c3ccccc3F)n[nH]n2c2ccccc12 | . | 8.0 | . | . | 2.0
Cc1cc(=O)n2[nH]c(COc3ccccc3)nc2n1 | i | -14.5 | i | i | -5.8
COCCNC(=O)CNS(=O)(=O)c1ccc2nc(C)sc2c1 | . | -1.3 | . | . | -0.4
O=C(CCCCCn1c(SCC(=O)c2ccccc2)nc2ccccc2c1=O)NCc1ccco1 | . | -4.9 | . | . | 0.2
COc1cccc(C2C(C(=O)c3sc(C)nc3C)=C(O)C(=O)N2CCN2CCOCC2)c1OC (centres undefined) | . | 2.0 | . | . | -0.9
O=c1oc2ccccc2c(O)c1C=NCc1ccccn1 | i | 1.1 | i | i | 2.6
COC(=O)c1ccc(C2/C(=C(\O)c3cccc(OC)c3)C(=O)C(=O)N2CCCN2CCOCC2)cc1 (centres undefined) | . | 11.7 | . | . | 9.2
COc1ccc2nc(NC(=O)CCNS(=O)(=O)c3ccc4c(c3)oc(=O)n4C)sc2c1 | . | 2.7 | . | . | 12.4
CCOC(=O)Cn1c(=N)n(Cc2ccccc2)c2ccccc21 | . | -2.0 | . | . | -2.9
Cc1cc(OCC(=O)Nc2cc(-c3nn4c(C)nnc4s3)ccc2C)ccc1Cl | . | 1.3 | . | . | 7.7
CCCCCn1c(=O)[nH]c2cc(C(=O)NCCN(CC)CC)ccc2c1=O | . | -0.8 | . | . | -0.5

Further results:
Molecule | VCAM-1 imaging | FPR ligand | VCAM-1 inhibition | VCAM-1 up imaging | FPRL1 binder
Cc1cccc(C(=O)N2CCC(n3nnc4cc(F)ccc43)CC2)c1 | i | 3.3 | i | i | -3.2
O=C(C1CCN(S(=O)(=O)c2cccc3cccnc23)CC1)N1CCCC1 | . | -1.2 | . | . | 5.2
O=C(Cn1cc2c(n1)CCCCC2)NCc1ccccn1 | . | -1.9 | . | . | 6.8
O=C1c2ccccc2C(=O)N1CCC(=O)N1CCc2ccccc21 | i | 10.8 | i | i | 2.2

Of the compounds above, these have a halogen:
Molecule | VCAM-1 imaging | FPR ligand | VCAM-1 inhibition | VCAM-1 up imaging | FPRL1 binder
Nc1nc(CSc2nnc(-c3cccc(F)c3)n2-c2ccccc2)nc(N2CCOCC2)n1 | . | 1.4 | . | . | 2.3
COCCNC(=O)c1ccc(CS(=O)(=O)c2ccc(Cl)cc2)o1 | . | 10.4 | . | . | 4.6
FC(F)(F)c1cc(-c2ccco2)nc(-n2cnc3ccccc32)n1 | . | -3.3 | . | . | -7.5
O=C(CSc1nc2c(c(=O)n1-c1ccc(Cl)cc1)SCC2)NCc1ccco1 | . | -1.5 | . | . | -5.0
CCC1CCCCN1C(=O)CSc1nnc(-c2ccc(Cl)cc2)o1 (centres undefined) | . | -5.4 | . | . | -3.5
Clc1ccc2c(c1)C(N1CCNCC1)=Nc1ccccc1O2 | i | -6.8 | i | i | 8.9
CCOC(=O)N1CCC(N2C(=O)c3ccccc3C2Nc2cc(Cl)c(OC)cc2OC)CC1 (centres undefined) | 72.7%* | -2.5 | 73.0 | i | 3.2
Cc1cc(C)nc(NC(=O)c2c(-c3c(Cl)cccc3Cl)noc2C)n1 | i | -5.2 | i | i | -0.8
CN(C)C(=O)N1CCC(C(=O)NCc2ccc(F)cc2)CC1 | . | 7.2 | . | . | -1.8
Cc1cc(NC(=O)c2cc(-c3cccc(Cl)c3)on2)no1 | . | 2.1 | . | . | 0.2
COC(=O)CCC(=O)Nc1cccc(Br)c1 | i | -3.6 | i | i | -0.6
CCN1CCN(C(c2cccs2)C(C)NC(=O)c2ccccc2F)CC1 (centres undefined) | . | -8.6 | . | . | 0.0
O=c1nc2c(-c3ccccc3F)n[nH]n2c2ccccc12 | . | 8.0 | . | . | 2.0
Cc1cc(OCC(=O)Nc2cc(-c3nn4c(C)nnc4s3)ccc2C)ccc1Cl | . | 1.3 | . | . | 7.7
Cc1cccc(C(=O)N2CCC(n3nnc4cc(F)ccc43)CC2)c1 | i | 3.3 | i | i | -3.2

Assay outcomes (PubChem)

An excerpt; count on the stated rates, not on these rows.
